Rango release inh: prevents RanGTP from dissociating the Rango-importin beta complex. Biochemical FRET Rango-importin beta, RanGTP-induced dissociation. Potency, µM (series often up to 46.1 µM), inactives show at the top dose activity change, negative = inhibition. 0.071% of 340,000 active. O95149+P62826. AID 540253; active means falling FRET ratio curve, often poorly fitted, with flat reads before Ran was added; inconclusive means other falling curves, or compound fluorescence or quenching; inactive means flat or rising ratio curve;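 further: potency means the concentration at half of the fitted maximal effect; % of control where 0% means no effect; nearly all actives have a fitted effect of over 45% in size; -100% = wells without RanGTP and RCC1; the record marks most hits as doubtful in a second field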
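Compounds preincubate 5 min with complex of recombinant Rango and importin beta in PBS with 1 mM DTT. Ran (0.6 uM) loaded with 2 mM GTP plus 0.2 uM RCC1 starts dissociation; FRET is recorded 45 min later.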
Rango complex inh: Rango-importin beta binding inhibition; Rango CFP/YFP FRET sensor + importin beta, 45 min; Potency, µM (series often up to 92.2 µM), without a hit: at the highest dose inhibition of complex formation; 0.031% of 340,000 active; active = rising FRET ratio curve, often small or poorly fitted; inconclusive = mostly compound fluorescence or quenching in the first reads; inactive = flat curves in all reads;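 further: potency means the concentration at half of the fitted maximal effect; 0% = DMSO wells and 100% = buffer wells lacking importin beta; nearly all actives have a fitted effect of over 15% in size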
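FRET biosensor Rango (snurportin 1 IBB between N-terminal EYFP and C-terminal Cerulean), 50 nM in PBS/1 mM DTT/0.02% Tween-20/0.1% BSA, preincubated 5 min RT with compound; 0.125 microM importin beta added, 45 min RT, CFP/YFP FRET ratio read.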
miR-21 reporter: raises the signal of a miR-21 reporter. HeLa miR-21 FLuc reporter, luciferase, 48 h. Potency, µM (doses to about 38.3 µM), for the others: at the top dose reporter change, positive = more light. 340,000 tested, under 10 active. AID 2288; active = well fitted rising curve with a large enough effect; inconclusive = small, poorly fitted or top-dose-only effect; inactive = no such curve, though single readings can be large or run the other way;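 further: % of control where 0% means no effect; miR-21 action dims this reporter so a rising signal means less miR-21 action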
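Using DMEM plus 10% FBS, HeLa miR-21-FLuc cells are incubated with test compounds (final up to about 40uM) for 48 hours; firefly luciferase signal is then imaged following reagent-mediated lysis.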
GLA inh pH 4.5: alpha-galactosidase A (human) inhibition, pH 4.5; P06280; purified enzyme, 4-MU-alpha-Gal fluorescence, pH 4.5; activity change, negative = inhibition, % at 105 µM; 230,000 tested, under 10 active; AID 1467; inconclusive = small, poorly fitted or top-dose-only inhibition, or a rising curve; inactive = flat fitted curve, though single readings scatter; no compound was filed as active;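 further: 0% = full activity with enzyme and -100% = basal without enzyme; dose as in the result columns while the protocol names 77 µM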
Target sequence (P06280 whole entry, looked up): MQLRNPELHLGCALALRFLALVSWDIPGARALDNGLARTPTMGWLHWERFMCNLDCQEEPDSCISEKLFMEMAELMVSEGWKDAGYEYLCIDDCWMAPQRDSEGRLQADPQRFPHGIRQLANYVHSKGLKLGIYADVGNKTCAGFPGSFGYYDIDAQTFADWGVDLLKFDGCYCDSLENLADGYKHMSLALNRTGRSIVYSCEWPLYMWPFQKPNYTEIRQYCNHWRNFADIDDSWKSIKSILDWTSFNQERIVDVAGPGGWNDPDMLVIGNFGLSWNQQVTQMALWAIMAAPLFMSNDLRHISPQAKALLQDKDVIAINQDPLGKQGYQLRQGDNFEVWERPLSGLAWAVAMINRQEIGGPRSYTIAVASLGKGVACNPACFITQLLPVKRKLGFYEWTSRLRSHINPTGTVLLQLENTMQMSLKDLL
Starred values were filed as active, the others as inactive; ? = inconclusive; . = not tested or not shown; & = joins results of further samples. An excerpt; count on the stated rates, not on these rows.

SMILES	Rango release inh	Rango complex inh	miR-21 reporter	GLA inh pH 4.5
CC1CCC2(CC1)NC(=O)N(CC(=O)Nc1ccc3c(c1)CCC3)C2=O (configuration not stated)	17%	0.3%	17%	-1
Cc1ccc(NC(=O)C2CCCN(C(=O)NCc3ccccc3)C2)c(C)c1 (configuration not stated)	-3%	3.7%	-4%	.
CCOC(=O)C1C(=O)NCC1c1ccccc1 (configuration not stated)	3%	-4.5%	2%	2
CCCN(CC(=O)Nc1ccccc1OC)C(=O)c1ccc2c(c1)NC(=O)C(C)S2 (configuration not stated)	-3%	3.6%	.	.
CC(=O)Nc1cc(C(=O)NCc2ccco2)ccc1Sc1ccc(F)cc1	4%	0.0%	1%	13
Cc1cc(C)c(S(=O)(=O)N(C)CC(N)=O)c(C)c1	-15%	-3.4%	-7%	-11
CCCCC(=O)Nc1nc2c(OC)cc([N+](=O)[O-])cc2s1	5%	-6.4%	0%	-3
COc1ccccc1CNC(=O)C(=O)c1cn(CC(=O)N2CCCC2)c2ccccc12	-10%	0.3%	-21%	.
Cc1cc(C(=O)NCC(c2ccco2)N2CCCC2)c2ccccc2n1 (configuration not stated)	-7%	4.6%	.	.
Cc1ccc(N(Cc2cc3ccc(C)cc3[nH]c2=O)S(=O)(=O)c2ccccc2)cc1	2%	-1.7%	-3%	.
Fc1ccc(N2CCN(Cc3cnc(Oc4ccc(Br)cc4)s3)CC2)cc1	-6%	-1.9%	-2%	-5
CC(=O)c1ccc(S(=O)(=O)N2CCN(C(C)=O)CC2)cc1	-8%	3.9%	-1%	4
Nc1nonc1-n1nnc(C(=O)N/N=C/c2ccc(Br)cc2)c1-c1ccc2c(c1)OCO2	7%	2.8%	-2%	.
CCCCc1c(C)nn(-c2nnc3c4ccccc4n(CC)c3n2)c1C	1%	4.2%	-3%	-2
Cc1ccc(S(=O)(=O)N(CC(=O)N2CCOCC2)C2CCCCC2)cc1	7%	-1.1%	-6%	-12
CC(C)(C)c1ccc(S(=O)(=O)N2CCNC(=O)C2)cc1	-12%	?	.	.
Cc1ccc([N+](=O)[O-])cc1-c1[nH]c(-c2ccc(O)c(O)c2)nc1-c1ccccc1	1%	-4.1%	6%	7
O=C(Nc1ccc([N+](=O)[O-])cc1)Nc1ccc(Cl)cc1F	-8%	3.6%	-5%	-10
Fc1ccc(C2=Nn3c(nnc3-c3n[nH]c4c3CCC4)SC2)cc1	0%	2.3%	-4%	4
CS(=O)(=O)N(CC(=O)O)c1cccc(Cl)c1	1%	0.2%	0%	-2

Fetched by compound from the list above (5):
SMILES	Rango release inh	Rango complex inh	miR-21 reporter	GLA inh pH 4.5
Cc1cc(C)c(S(=O)(=O)N(C)CC(N)=O)c(C)c1	-15%	-3.4%	-7%	-11
Cc1cc(C(=O)NCC(c2ccco2)N2CCCC2)c2ccccc2n1 (configuration not stated)	-7%	4.6%	.	.
CC(C)(C)c1ccc(S(=O)(=O)N2CCNC(=O)C2)cc1	-12%	?	.	.
CCCCc1c(C)nn(-c2nnc3c4ccccc4n(CC)c3n2)c1C	1%	4.2%	-3%	-2
Cc1ccc(N(Cc2cc3ccc(C)cc3[nH]c2=O)S(=O)(=O)c2ccccc2)cc1	2%	-1.7%	-3%	.

The results go on:
SMILES	Rango release inh	Rango complex inh	miR-21 reporter	GLA inh pH 4.5
CCC1(c2ccc(F)cc2)NC(=O)N(CC(=O)Nc2cc(S(=O)(=O)N(C)C)ccc2Cl)C1=O (configuration not stated)	15%	-6.4%	17%	-22
Clc1cccc(Oc2ncc(CN3CCOCC3)s2)c1	-6%	-4.9%	-29%	-2
CN(C)S(=O)(=O)c1cc(C(=O)O)c(NC2CCCCC2)cc1Cl	-8%	3.3%	-2%	4
N#Cc1nnn2c1nc(N)c1c(F)cccc12	26%	1.2%	.	.
Cc1ccc(CNC(=O)Cn2ccc3cc(S(=O)(=O)N4CCCC4)ccc32)o1	-12%	-0.2%	1%	.
CN(C)CCNS(=O)(=O)c1ccc(N2CCN(c3ccc(F)cc3)CC2)c([N+](=O)[O-])c1	-7%	-2.0%	2%	-4
O=C(NCC(c1ccco1)N1CCN(c2ccc(F)cc2)CC1)C(=O)NC1CCCC1 (configuration not stated)	-12%	2.8%	.	.
CN(C)CCCN(C(=O)c1ccc(C(=O)c2ccccc2)cc1)c1nc2c(F)cccc2s1	0%	0.7%	1%	.
CCOC(=O)N1CCN(C(=O)CSCc2ccc(Br)cc2)CC1	0%	-0.5%	-8%	2
O=C1OC(c2ccc3c(c2)OCO3)=N/C1=C\c1ccc(C(=O)O)cc1	9%	1.0%	-2%	.
O=C(c1cccs1)N1CCN(Cc2cccnc2)CC1	4%	0.7%	-13%	2
COCC1CCN(C(=O)C2CCC(=O)N(CCc3cccc(F)c3)C2)CC1 (configuration not stated)	1%	-0.7%	-5%	.
CCOc1ccc(C(=O)N[C@H](C(=O)O)C(C)C)cc1	?	-0.7%	-3%	2
O=C(OCC(=O)N1CCCc2ccccc21)c1cc(S(=O)(=O)N2CCOCC2)ccc1O	27%	-1.2%	.	.
COC(=O)c1ccccc1OCc1cccc(C)n1	1%	4.8%	-6%	1
CS(=O)(=O)c1ccc(C(=O)N2CCN(C(=O)c3ccco3)CC2)cc1	0%	-0.5%	.	.
O=C(Nc1ccc(Cl)cn1)c1cccnc1	12%	1.7%	-2%	4
CC(=O)c1cccc(NC(=O)C2C(c3ccccc3)C2(Cl)Cl)c1 (configuration not stated)	3%	1.3%	10%	-10
O=C(COC(=O)Cn1cnc2ccccc2c1=O)Nc1ccc(Cl)c(C(F)(F)F)c1	9%	3.6%	-4%	-4
Cc1ccc(C(=O)OCC(=O)c2ccc[nH]2)s1	2%	0.8%	-10%	0

The final two compounds of the section above open the next one:
SMILES	Rango release inh	Rango complex inh	miR-21 reporter	GLA inh pH 4.5
O=C(COC(=O)Cn1cnc2ccccc2c1=O)Nc1ccc(Cl)c(C(F)(F)F)c1	9%	3.6%	-4%	-4
Cc1ccc(C(=O)OCC(=O)c2ccc[nH]2)s1	2%	0.8%	-10%	0
CC(C)C(=O)Nc1cccc(C(=O)Nc2nnc(C(C)C)s2)c1	2%	0.1%	-60%	1
O=Cc1cccn1-c1c(C(=O)O)cnn1-c1ccccc1	-14%	-3.4%	6%	2
CCC(C)(C)C(=O)Nc1ccc(C(N)=O)cc1	-13%	5.3%	-10%	0
CN(Cc1cnccn1)Cc1nc(Cc2cccc(F)c2)no1	24%	2.1%	-2%	5
O=C(c1cc(COc2cccc(C(F)(F)F)c2)on1)N1CCC(c2ccncc2)CC1	0%	-0.6%	-1%	.
CCCCOc1ccc(OCCCN2CCOCC2)cc1	-9%	-3.7%	-13%	-2&5
O=C(Nc1ccc(Cl)c(Cl)c1)N1CCOCC1	3%	-2.3%	-20%	.
COC(=O)c1ccc(C(=O)OC)c(NC(=O)CSCc2ccc(Br)cc2)c1	1%	-2.4%	-3%	-28
COc1ccc(-c2cc3c(=O)n(CC(=O)Nc4ccc(Cl)cc4)nc(C)n3n2)cc1	-11%	-0.5%	-2%	.
O=C1NC(=O)/C(=C\c2ccc(Oc3ccc([N+](=O)[O-])cn3)cc2)S1	2%	?	-19%	7
CC(C)CC(C(=O)NCC1CCCO1)N(C(=O)Cn1nnc(-c2ccc(F)cc2)n1)c1cccc(C(F)(F)F)c1 (configuration not stated)	3%	3.1%	0%	2
CCNC(=S)NNC(=O)C1CCN(Cc2ccccc2)CC1	1%	-1.1%	-1%	-2
Cc1ccc(C)c2nc3sc(C(=O)N4CCOCC4)c(N)c3cc12	?	?	-42%	5
COc1ccc(NS(=O)(=O)c2cccc(NC(=O)COc3ccc(OC)cc3)c2)cc1	10%	-2.2%	26%	2
Cc1snc(SCc2ccc(Cl)cc2)c1C#N	-3%	3.4%	-32%	.
CC(=O)Nc1ccc(Oc2ccc([N+](=O)[O-])cc2Cl)cc1	-6%	-0.1%	0%	-11
CCOC(=O)c1cn(Cc2cccc(C)c2)nn1	7%	-0.3%	-5%	1
O=C(OCc1ccccc1Cl)c1cccnc1Cl	12%	1.1%	-2%	6
O=C(NCCCN1CCOCC1)c1ccc(Cl)cc1[N+](=O)[O-]	9%	3.4%	0%	0
COc1ccc(NC(=S)N2CCN(c3ccccn3)CC2)cc1OC	5%	3.4%	-7%	-3
COc1ccc(S(=O)(=O)NC2CCCCCC2)c(OC)c1	-25%	0.6%	-3%	.
CCN(CC)S(=O)(=O)c1ccc(NC(=S)NC(=O)CC(C)C)cc1	-10%	0.9%	-1%	7
Cc1cc(OCC(=O)N2CCN(c3ccccc3)CC2)c2c(C)c(C)c(=O)oc2c1	3%	-1.0%	0%	.
CN(Cc1ccccc1)C(=O)C1CCCN1S(=O)(=O)c1ccc(Cl)cc1 (configuration not stated)	-3%	-0.4%	.	.
O=C(Nc1nnc(S(=O)(=O)N2CCOCC2)s1)c1ccccc1Cl	-3%	-1.7%	-2%&-9%	.
CN1CC(=O)N(CC(=O)Nc2cccc3ccccc23)C1=O	1%	0.2%	.	.
CC1(C)Nc2ccccc2N(CCC(=O)N2CCOCC2)C1=O	23%	1.8%	0%	6
Cc1ccccc1-n1c(SCC(=O)N2CCCCC2)nc(O)cc1=O	7%	0.5%	-6%	.
CCOc1ccc(N2C(=O)C(C)CNC2=S)cc1 (configuration not stated)	14%	-0.7%	.	.
c1cncc(CNc2cccc(-c3nc4ccccc4[nH]3)c2)c1	-1%	0.2%	-39%	3
COC(=O)c1c(-c2ccc(OC)cc2)oc2ccc(-c3ccc(OC)nc3)cc12	2%	1.5%	0%	.
COC(=O)C1=CN(c2cc(C)cc(C)c2)C=C(C(=O)OC)C1c1cccc(F)c1	-17%	2.7%	0%	.
O=[N+]([O-])c1cc2c(cc1/C=N/Nc1nc(Nc3ccccc3)nc(N3CCCCC3)n1)OCO2	-3%	9.1%	-9%	-11
COc1ccc(C(c2nnnn2CS(=O)(=O)c2ccc(C)cc2)N2CCN(Cc3ccccc3)CC2)cc1 (configuration not stated)	12%	-0.6%	.	.
O=C(CC1C(=O)NCCN1CC1CCCCC1)NCCCN1CCOCC1 (configuration not stated)	-9%	-2.2%	-3%	.
O=C(CCC1CCCN(C(=O)Cn2cnnn2)C1)NCc1ccccc1F (configuration not stated)	-7%	-2.8%	3%	-7
COC(=O)COc1ccc2c(-c3ccc(OC)cc3)cc(=O)oc2c1	7%	1.1%	-1%	4
COc1ccc(C2C(C(=O)O)CCC(=O)N2c2ccc(C)cc2)cc1OC (configuration not stated)	50%	3.1%	6%	-5
CN(C(=O)c1ccc(NC(=O)Cc2cccc(NC(=O)C3CCN(C(=O)C4CCCC4)CC3)c2)cc1)C1CC1	-9%	3.3%	.	.
CCOC(=O)/C(C#N)=C1/C=Nc2ccccc2N1	?	?	-14%	-1
O=C(O)c1ccoc1CN1CCCCC1	-5%	1.5%	-3%	-5
CCOC(=O)C(NC(=O)CCC(=O)Nc1ccc(S(N)(=O)=O)cc1)C(O)c1ccccc1 (configuration not stated)	21%	-1.7%	-5%	.
CC(C)n1c(SCc2ccc(Cl)cc2)nc2c1c(=O)[nH]c(=O)n2C	-3%	0.2%	-18%	3
CC(C)C(C(=O)NCc1ccco1)N(C(=O)CNS(=O)(=O)c1ccccc1)c1ccccc1 (configuration not stated)	3%	2.6%	0%	-22
COc1cc(Cl)cc(C(=O)O)c1OCC(=O)O	1%	0.4%	3%	-9
Cc1cc(S(=O)(=O)N2CCCC2)ccc1OCC(=O)N1CCOCC1	-3%	1.2%	-7%	3
CC1(C)CC(CC(=O)NNc2nc(-c3ccccc3)cs2)C(=O)O1 (configuration not stated)	15%	3.1%	-11%	-10
Fc1cccc(CSc2ncnc3c2ncn3C2CCCCO2)c1 (configuration not stated)	-3%	-1.0%	.	.
COc1ccc(-c2sc3ccccc3c2-c2ccc(OCCN3CCOCC3)cc2)cc1	-4%	0.5%	.	.
COCCNC(=O)CSc1nc2sccc2c(=O)n1-c1ccccc1	29%	0.5%	-9%	.
COCC(=O)N1CCC(Oc2ccc(C(=O)N3CCCCC3COC)cc2)CC1 (configuration not stated)	5%	-0.6%	-3%	.
CCCn1c(SCC(=O)NC2CCCC(C)C2C)n[nH]c1=O (configuration not stated)	-2%	3.7%	-3%	3
CC12CC3(C)CC(C)(C1)CC(C(=O)Nc1nn[nH]n1)(C2)C3	0%	0.3%	1%	-2

Source: PubChem (National Center for Advancing Translational Sciences (NCATS))
